Screening results (PubChem)
MARV entry inh: Marburg virus entry inhibition; 300,000 tested, 1.8% active; Potency, µM (series often up to 37.8 µM), for inactives: at the top dose activity change, negative = inhibition, usual class: inhibitors; Marburg virus pseudotyped entry inhibition, cell reporter; control for the full effect not named in the record; about a third of the inactives were read at about 46 µM; active = well fitted inhibition curve with a large enough effect; inconclusive = small, poorly fitted or top-dose-only effect, or effect the other way; inactive = flat fitted curve, though single readings scatter; tested in HEK293 cells; about a fifth of its hits are not listed in these tables; also: % is scaled to controls: 0 for no effect and ±100 for the full control effect; luciferase read-out
LASV entry inh: blocks Lassa virus binding to or entry into cells; Lassa virus pseudotype entry inhibition, cell reporter; control for the full effect not named in the record; Potency, µM (titrated, usually from 37.9 µM), without a hit: top-dose activity change, negative = inhibition, usual class: inhibitors; 300,000 tested, 1.2% active; active means well fitted inhibition curve with a large enough effect; inconclusive means small, poorly fitted or top-dose-only effect, or effect the other way; inactive means flat fitted curve, though single readings scatter; tested in HEK293 cells; also: % is scaled to controls: 0 for no effect and ±100 for the full control effect; nearly all actives have a fitted effect of over 50% in size; luciferase read-out
RE007 growth inh: less growth of the S. pombe RE007 Vpr strain. Potency, µM (doses to about 92.2 µM), for the others: top-dose activity change, negative = less growth. 360,000 tested, 0.21% active. S. pombe RE007 Vpr strain, BacTiter-Glo ATP luminescence, 24 h; control for the full effect not named in the record. AID 651644; active = well fitted falling curve with a large enough effect; inconclusive = small, poorly fitted or top-dose-only effect; inactive = no such curve, though single readings can be large or run the other way;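 also: % is scaled to controls: 0 for no effect and ±100 for the full control effect; nearly all actives have a fitted effect of over 50% in size; the assay follows cell death caused by Vpr and the record does not say whether a fall means rescue or toxicity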
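Fission yeast RE007 carrying one integrated HIV-1 vpr copy, seeded at OD 0.01 in PMG+AL medium with 23 nL pinned compound. Grown 24 h at 30 degrees; viability read by BacTiter-Glo luminescence after 5 min.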
Cruzain noTriton: blocks cruzain activity in detergent-free assay | Potency, µM, inactives show max response, negative = inhibition, usual class: inhibitors | P25779 | 200,000 tested, 2.3% active | purified cruzain, Z-FR-AMC fluorescence, no detergent | AID 1476; active = well fitted curve in the direction sought with a large enough effect; inconclusive = small, poorly fitted or top-dose-only effect, or another doubt; inactive = no such curve, though single readings can be large; an effect the other way counts as inactive or inconclusive;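 also: plate controls were enzyme without inhibitor for no effect and buffer without enzyme for full effect; nearly all actives have a fitted effect of over 40% in size; top concentration of the series not given in the record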
Target sequence (P25779 123-467 limits assumed): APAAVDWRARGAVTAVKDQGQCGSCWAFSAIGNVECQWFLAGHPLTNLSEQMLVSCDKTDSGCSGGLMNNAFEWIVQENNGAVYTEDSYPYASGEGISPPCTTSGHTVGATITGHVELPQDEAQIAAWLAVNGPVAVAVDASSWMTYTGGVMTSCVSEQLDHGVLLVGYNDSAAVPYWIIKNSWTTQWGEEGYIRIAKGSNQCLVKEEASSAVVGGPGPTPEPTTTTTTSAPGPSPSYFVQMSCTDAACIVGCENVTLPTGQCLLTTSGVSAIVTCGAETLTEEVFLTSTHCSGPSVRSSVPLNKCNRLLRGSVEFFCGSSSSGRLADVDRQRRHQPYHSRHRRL
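Purified cruzain at 1.5 nM, pre-incubated 15 min with compound at room temperature in 100 mM sodium acetate pH 5.5, 5 mM DTT, 0.00005% Triton X-100. Reaction started with 2 uM Z-FR-AMC; AMC fluorescence increase over 60 s gives rate.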
NS1 inh: influenza NS1 inhibition | S. cerevisiae slowed by influenza A NS1, growth recovery by OD600 | Potency, µM (titrated, usually from 46.1 µM), inactives show top-dose activity, positive = more growth | 270,000 tested, 0.4% active | AID 2326; also: actives are rising curves; nearly all actives have a fitted effect of over 50% in size
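Read-out: OD600 growth recovery of NS1-expressing budding yeast. Cells grown overnight at 30C in -URA glucose medium, washed, resuspended and diluted 1:100 in 2% galactose assay medium, pH 6.0. Same strain lacking NS1 served as positive control.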
Cruzain Triton: cruzain (T. cruzi) inhibition with detergent. P25779. purified cruzain, Z-FR-AMC fluorescence, 0.01% Triton. Potency, µM, for inactives: max response, negative = inhibition, most hits filed as inhibitors. 200,000 tested, 0.43% active; active = well fitted curve in the direction sought with a large enough effect; inconclusive = small, poorly fitted or top-dose-only effect, or another doubt; inactive = no such curve, though single readings can be large; an effect the other way counts as inactive or inconclusive;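 also: plate controls were neutral wells for no effect and buffer without enzyme for full effect; nearly all actives have a fitted effect of over 40% in size; top concentration of the series not given in the record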
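Detergent-containing arm of a paired screen for aggregation-based inhibition: 0.01% Triton X-100 present. Cruzain at 1.5 nM cleaved 2 uM Z-FR-AMC at pH 5.5 with 5 mM DTT; AMC fluorescence gain over 60 s measured activity.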
StopGo reporter: lowers the luciferase signal of an FMDV 2A StopGo reporter; 410,000 tested, 1.2% active; human cells with a luciferase reporter of 2A StopGo recoding; control for the full effect not named in the record; Potency, µM (doses to about 57.9 µM), without a hit: at the top dose signal change, negative = less light; active = well fitted falling curve with a large enough effect; inconclusive = small, poorly fitted or top-dose-only effect; inactive = no such curve, though single readings can be large or run the other way; tested in HEK293T cells; also: % is scaled to controls: 0 for no effect and ±100 for the full control effect; nearly all actives have a fitted effect of over 45% in size; luciferase light after 4 h
SARS PLpro yeast: inhibitors of SARS-CoV papain-like protease in yeast. Potency, µM (series often up to 32.9 µM), for the others: at the top dose activity, positive = growth rescue. AID 485353. 330,000 tested, 0.19% active. S. cerevisiae expressing SARS-CoV PLpro, growth rescue; control for the full effect not named in the record; also: 0% is about no effect; nearly all actives have a fitted effect of over 55% in size; growth read by luminescence after 48 h
* = called active by the depositor; ? = inconclusive; / = no result given; [ ] = another dose, or the depositor's remark. Unless noted, calls follow the shape of the dose curve; as a rule, active means well fitted rising curve with a large enough effect; inconclusive means small, poorly fitted or top-dose-only effect; inactive means no such curve, though single readings can be large or run the other way. Potency is read from the fitted curve at half-maximal effect.

Second line of a record – MARV entry inh, LASV entry inh, RE007 growth inh, Cruzain noTriton, NS1 inh, Cruzain Triton, StopGo reporter, SARS PLpro yeast
1) O=C(COc1ccc(S(=O)(=O)NC2CCCCC2)cc1)NC1CCCC1
    ?, ?, 1%, /, 2%, /, 50%[activator], 1%
2) O=C(COC(=O)c1ccc2c(c1)OCCO2)NCc1ccccc1
    4%, -12%, 16%, -1%, -4%, -1.0%, 32%[activator], -3%
3) O=C(NCc1ccc2c(c1)OCO2)C1CCN(S(=O)(=O)N2CCOCC2)CC1
    13%, 8%, -13%, -4%, 1%, -1.2%, -5%, 5%
4) COC(C[C@@H](O)C[C@H](O)COCc1ccccc1)OC
    /, /, 13%, /, -1%, /, -6%, -4%
5) COC(=O)c1ccc(CNC(=O)C2CCC(=O)N(Cc3cccc(F)c3)C2)cc1 (stereo not given)
    16%, 5%, -12%, /, 1%, /, 0%, 1%
6) CC(C)=NOc1cc(NC(=O)CCl)cc([N+](=O)[O-])c1
    23µM*, 18µM*, -23%, -6%, -27%, -6.2%, 7.9µM*, -3%
7) CCOC(=O)/C(C(=O)Nc1ccc(Cl)cc1Cl)=C1/NC(C)(C)Cc2ccccc21
    /, /, /, -22%, 8%, -8.3%, /, 15%
8) O=C(NCCc1cccc(C(F)(F)F)c1)C1CCC(=O)N(CCc2cccc(F)c2)C1 (stereo not given)
    /, /, 6%, /, ?, /, 2%, 5%
9) CCCN(CCC)C(=O)C1CCCN1S(=O)(=O)c1cccc2nsnc12 (stereo not given)
    /, /, 4%, /, 2%, /, 30%, -2%
10) CC1CCN(S(=O)(=O)c2ccc3nc(NCc4ccc(F)cc4)ccc3c2)CC1
    /, ?, /, -6%, /, -4.8%, -11%, /
11) CC(O)c1cccc(NC(=O)Nc2cccc(NC(=O)Nc3cccc(C(C)O)c3)c2)c1 (stereo not given)
    /, /, -11%, /, 0%, /, 3%, 0%
12) COc1ccc2c(c1)c1nc3n(c(=O)c1n2CC(=O)Nc1ccccc1)CCS3
    /, /, -1%, /, -5%, /, -16%, ?
13) COc1ccc(CNCCC2(O)CC(C)N(C)CC2C)cc1OC (stereo not given)
    ?, -11%[46.1 µM], -19%, /, 1%, /, 1%, -5%
14) Cc1cccc(NC(=O)c2cccc(NC(=O)c3ccccc3)c2)n1
    ?, 2%[46.1 µM], -11%, /, -36%, /, -8%, 1%
15) Nc1c(C(=O)NCc2ccccc2)sc2nc3c(cc12)C(=O)CCC3
    -4%, ?, 29%, 6%, 0%, -4.7%, 15%, 2%
16) COc1ccc(NC(=S)Nc2ccc(F)cc2)cc1
    /, /, -6%, /, 22%, /, 4%, 0%
17) Cc1ccc(NC(=O)C2CCN(S(C)(=O)=O)CC2)c(C)c1
    /, /, -9%, /, 11%, /, 0%, -9%
18) CCCc1c(C(=O)N/N=C/c2cccc(OCc3ccc(F)cc3)c2)nnn1-c1nonc1N
    /, /, 4%, /, -9%, /, -13%, -2%
19) Cc1cc(C)n(C(=O)c2ccc(C)c(S(=O)(=O)N3CCCC3)c2)n1
    1%, 0%, -33%, 5%, -7%, 0.7%, -2%, -1%
20) Cc1[nH]n(-c2ccccc2)c(=O)c1N=Nc1ccc(C(N)=O)cc1
    22%, 15%, -13%, /, 0%, /, -15%, -3%

Next part
Second line of a record – MARV entry inh, LASV entry inh, RE007 growth inh, Cruzain noTriton, NS1 inh, Cruzain Triton, StopGo reporter, SARS PLpro yeast
21) CCOc1ccc(-c2[nH]ncc2-c2csc(C)n2)c(O)c1
    ?, ?, -22%, 9%, 0%, -0.9%, -15%, 30%
22) COC(=O)CSc1nnc(CCc2nc3ccccc3[nH]2)n1C
    ?, -2%, 0%, -8%, 3%, 0.1%, -15%, -7%
23) Cc1ccc(S(=O)(=O)N2CCN(C(=O)CN3CCCCC3)C2C(C)C)cc1 (stereo not given)
    ?, -2%, -11%, -2%, -1%, 5.5%, 6%, -6%
24) Cc1nc2c(-c3ccc(F)cc3)c(C)nn2c(C)c1CCC(=O)N1CCC(Cc2ccccc2)CC1
    /, /, 18%, ?, 7.1µM*, -3.3%, -27%, -3%
25) Cc1nn(-c2ccccc2)c(Cl)c1/C=N/NC(=O)c1nn(C)cc1[N+](=O)[O-]
    /, /, 8%, /, -5%, /, 8%, -5%
26) CCN(CC)S(=O)(=O)c1ccc(N2CCOCC2)c(NC(=O)C2CSC3(C)CCC(=O)N23)c1 (stereo not given)
    ?, 3%, -13%, /, -28%, /, -19%, 2%
27) Cc1ccc(S(=O)(=O)N2CCN(CC(=O)N/N=C\c3cccnc3)CC2)cc1
    14%, -6%, -14%, 0%, -8%, 0.2%, 23%, -13%
28) CCC1=C(OC(=O)N(CC)CC)N2C(=O)OC(=NCC3CC3)[C@]2(C)[C@H]2C1=CC[C@H]1C(=O)NC(=O)[C@H]12
    /, /, -7%, 0%, 3%, 10.0%, 4%, 7%
29) CC(C)/C=C/C(=O)N1CCCC(N2CCN(c3ccccc3F)CC2)C1 (stereo not given)
    /, /, -15%, /, 14%, /, -26%, 8%
30) CC1=NN(C(N)=S)C(=O)C1N=Nc1cccc(Cl)c1 (stereo not given)
    /, /, -27%, /, -50%, /, 34%[activator], -4%
31) C/C(=N\O)c1ccn(S(=O)(=O)c2ccc(Cl)cc2)c1
    /, /, 3%, /, -1%, /, -9%, 0%
32) N#C/C(=C\c1ccccc1)C(=O)NNS(=O)(=O)c1ccc(Br)cc1
    6%, 0%, 20%, /, /, /, 11%, -6%
33) COc1ccccc1CNc1ncnc2c1nnn2Cc1ccccc1
    -28%, 5%, 11%, 6%, -14%, -6.5%, -22%, 2%
34) COc1ccc2cc(C(=O)C3CCCN(C(=O)c4cncs4)C3)ccc2c1 (stereo not given)
    -24%, -6%, -1%, /, -86%, /, -3%, -15%
35) N#C/C(=C\c1ccccc1)C(=O)N(c1ccccn1)C1CCCCC1
    -9%, 6%, 2%, 18%, -44%, -3.2%, ?, -51%
36) CC(C)OCCCNC(=O)COCC(=O)Nc1ccc(OCCc2ccccc2)cc1
    /, /, 10%, /, -24%, /, 0%, 0%
37) Cc1ccsc1C(=O)OCC(=O)NC1CCCC(C)C1C (stereo not given)
    9%, -2%, 28%, /, /, /, 26%, -1%
38) N#Cc1ccc(NC(=O)NN2CCCCCC2)cc1
    -11%, ?, 7%, /, /, /, -12%, /
39) COc1ccc(C2/C(=C(/O)c3ccc4c(c3)CC(C)O4)C(=O)C(=O)N2Cc2cccnc2)cc1 (stereo not given)
    /, /, -5%, /, 6%, /, -12%, 1%
40) CCc1ccc(NC(=S)N2CCN(c3cccc(OC)c3)CC2)cc1
    /, /, -9%, /, 2%, /, 1%, -1%

(listing goes on)
Second line of a record – MARV entry inh, LASV entry inh, RE007 growth inh, Cruzain noTriton, NS1 inh, Cruzain Triton, StopGo reporter, SARS PLpro yeast
41) CCOCCCNC(=O)CCn1nc(-c2ccc(Cl)cc2)ccc1=O
    /, /, 12%, /, 7%, /, -24%, -2%
42) Cc1cccc(OCC(=O)Nc2c(C(=O)N3CCN(c4ccccc4F)CC3)oc3ccccc23)c1
    10µM*, ?, /, ?, /, -10%, 52%[activator], /
43) COc1ccccc1N(CC(=O)N(c1ccccc1)C(C)C)S(=O)(=O)c1cccs1
    ?, /, 1%, /, /, /, 26%, 2%
44) COc1ccc(C(=O)CCS(=O)(=O)c2ccc(C)cc2)cc1
    ?, -23%[46.1 µM], -23%, /, -1%, /, -21%, 3%
45) O=C1N/C(=N/c2ccccn2)SC1Cc1ccccc1 (stereo not given)
    8%, ?, 2%, 7%, 0%, 2.7%, /, 7%
46) Cc1nn(Cc2ccc(F)cc2)c2sc(C(=O)Nc3ccccc3N3CCOCC3)cc12
    -17%, ?, 25%, ?, -3%, -5.0%, -14%, 13%
47) Cc1ccccc1NC(=O)CSc1ccc2nnc(-c3ccccn3)n2n1
    /, /, 2%, /, 3%, /, -8%, 3%
48) CN(C)CCN1C(=O)c2oc3ccccc3c(=O)c2C1c1ccc(F)cc1 (stereo not given)
    -1%, 2%, -16%, 0%, -12%, -2.0%, -1%, 0%
49) O=C(O)c1cccc(Nc2cc(Cl)c3nonc3c2[N+](=O)[O-])c1
    3%, -1%, -11%, /, 3%, /, 6%, 1%
50) Cc1ccc(C)c(-c2cc(C(=O)Nc3sc(C)c(C)c3C(N)=O)c3ccccc3n2)c1
    ?, ?, -8%, ?, 4%, 0.6%, 22µM*, -4%
51) CC1(C)CC(=O)C2=C(C1)OC(N)=C([N+](=O)[O-])C2c1ccc(C#N)s1 (stereo not given)
    13%[46.1 µM], ?, 5%, /, -4%, /, -22%, -3%
52) Cc1ccc(S(=O)(=O)c2nc(Nc3nccs3)sc2Cl)cc1
    ?, ?, 15%, ?, -1%, -12%, ?, 2%
53) CCOC(=O)c1c(C)sc2c1N(C(=O)CN1CCOCC1)c1cc(Cl)ccc1S2
    ?, ?, 2%, ?, -33%, -11%, -12%, -18%
54) NS(=O)(=O)c1ccc(CCNC(=O)CCc2nc3ccccc3s2)cc1
    1%[46.1 µM], 6%, 34%, /, 1%, /, 20%, 3%
55) CCOC(=O)NC(NCc1ccccc1)(C(F)(F)F)C(F)(F)F
    3%, ?, -7%, 1%, -1%, 0.6%, 1%, 2%
56) CNCCOc1ccc(Cl)c(Cl)c1
    ?, -42%[46.1 µM], 14%, /, 1%, /, -10%, 0%
57) O=C(CNC(=O)c1ccccc1F)OCC(=O)N1CCCc2ccccc21
    13%, ?, -7%, 10µM*, -1%, 10µM*, 10%, 29%
58) Cc1ccc(N2CC(C(=O)N3CCC(C(=O)Nc4nncs4)CC3)CC2=O)cc1 (stereo not given)
    6%[46.1 µM], 8%[46.1 µM], 7%, /, 11%, /, -5%, -4%
59) CC[C@@H](C)[C@@H](C(=O)N1CCN(C(=O)OC(C)(C)C)CC1)n1cc(CCCCNC(=O)OC(C)(C)C)nn1
    /, /, -14%, /, -5%, /, 13µM*, -1%
60) O=C(NC(=O)c1ccc(Cl)cc1)OC1CCCCC1
    13%, 7%, 47%, 9%, 1%, 3.0%, 50%[activator], -1%
